Polio RdRp inh: poliovirus RNA polymerase inhibition | AID 588519 | % elongation, % (compound at 16.7 µg/mL) | P03300 | poliovirus polymerase elongation, fluorescence polarization; hits give low values | actives 0.66% (n = 150,000); in the data active means % elongation below about 90%; further: some results filed as inactive read as strong as hits
Target sequence (P03300 1749-2209 limits assumed): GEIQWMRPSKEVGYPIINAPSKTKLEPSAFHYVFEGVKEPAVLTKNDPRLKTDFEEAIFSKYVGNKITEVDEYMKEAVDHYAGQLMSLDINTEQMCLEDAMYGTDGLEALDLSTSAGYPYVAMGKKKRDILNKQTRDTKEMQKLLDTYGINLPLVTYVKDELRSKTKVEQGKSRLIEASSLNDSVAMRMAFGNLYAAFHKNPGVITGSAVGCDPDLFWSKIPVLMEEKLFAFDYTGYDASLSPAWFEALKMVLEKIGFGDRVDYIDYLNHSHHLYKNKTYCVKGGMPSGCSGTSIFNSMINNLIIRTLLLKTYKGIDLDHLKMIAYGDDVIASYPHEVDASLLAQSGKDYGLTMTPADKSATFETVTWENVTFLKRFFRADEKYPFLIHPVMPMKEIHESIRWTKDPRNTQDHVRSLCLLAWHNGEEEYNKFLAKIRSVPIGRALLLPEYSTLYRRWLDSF
Polio RdRp inh intensity: also measured in Polio RdRp inh; calls as there; % elongation; measured here: total intensity read-out; formula for this scale not given here;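 total fluorescence in place of polarization; lower means less elongation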
An asterisk follows results filed as active. An excerpt. The share of hits here may be higher or lower than overall.

Sample of the layout, 16 compounds:
SMILES	Polio RdRp inh	Polio RdRp inh intensity
CC(C)COc1ccc(C2=NC(c3ccncc3)=Nc3ccc(F)cc3N2)cc1	102	97
CCN(Cc1ccccc1)S(=O)(=O)c1ccc(N2CCCCS2(=O)=O)cc1	104	112
COCCN1CCc2nc(SCC(=O)Nc3ccc(Br)cc3)[nH]c(=O)c2C1	112	113
COc1ccc(C2C=C(c3ccc(F)cc3)Nc3nc(-c4ccc(Cl)cc4)nn32)cc1 (stereo unspecified)	108	139
COc1cccc(CNC(=O)c2ccc(-n3c(C)cc4c3CCCC4)cc2)c1	112	111
COc1ccc(NC(=O)Cn2c(=O)n(-c3cc(C)cc(C)c3)c(=O)c3oc4ccccc4c32)cc1OC	108	109
O=C(NCc1ccc2c(c1)CCN2C(=O)c1ccncc1)c1ccccc1Br	104	102
CCOC(=O)c1c(C)[nH]c(C)c1S(=O)(=O)N1CCCC(C(=O)Nc2ccc(OC)c(OC)c2)C1 (stereo unspecified)	102	106
COc1cccc(S(=O)(=O)N2CCN(Cc3ccc4c(c3)OCO4)CC2)c1	108	112
COCCCn1c(=N)c(C(=O)NCc2ccco2)cc2c(=O)n3ccccc3nc21	112	112
O=C(O)Cn1ccc2cc(S(=O)(=O)N3CCCCCC3)ccc21	103	109
CCC(=O)N1N=C(c2ccc(OC)cc2)CC1c1cn(-c2ccccc2)nc1-c1cccs1 (stereo unspecified)	103	101
COc1cccc(CNS(=O)(=O)c2ccc3c(c2)CCN3C(=O)C2CCC2)c1	106	109
CCc1ccccc1Nc1nn2c(=O)c3ccc(C(=O)Nc4ccc(OC)cc4)cc3nc2s1	106	115
COc1cccc(OC(=O)CSc2nnc(-c3ccccc3OC)o2)c1	98	102
COc1cccc(CNC(=O)c2cc3cc(C)ccc3n2C)c1	113	109

Main list (from the top)
SMILES	Polio RdRp inh	Polio RdRp inh intensity
CC(C)COc1ccc(C2=NC(c3ccncc3)=Nc3ccc(F)cc3N2)cc1	102	97
CCN(Cc1ccccc1)S(=O)(=O)c1ccc(N2CCCCS2(=O)=O)cc1	104	112
COCCN1CCc2nc(SCC(=O)Nc3ccc(Br)cc3)[nH]c(=O)c2C1	112	113
COc1ccc(C2C=C(c3ccc(F)cc3)Nc3nc(-c4ccc(Cl)cc4)nn32)cc1 (stereo unspecified)	108	139
COc1cccc(CNC(=O)c2ccc(-n3c(C)cc4c3CCCC4)cc2)c1	112	111
COc1ccc(NC(=O)Cn2c(=O)n(-c3cc(C)cc(C)c3)c(=O)c3oc4ccccc4c32)cc1OC	108	109
O=C(NCc1ccc2c(c1)CCN2C(=O)c1ccncc1)c1ccccc1Br	104	102
CCOC(=O)c1c(C)[nH]c(C)c1S(=O)(=O)N1CCCC(C(=O)Nc2ccc(OC)c(OC)c2)C1 (stereo unspecified)	102	106
COc1cccc(S(=O)(=O)N2CCN(Cc3ccc4c(c3)OCO4)CC2)c1	108	112
COCCCn1c(=N)c(C(=O)NCc2ccco2)cc2c(=O)n3ccccc3nc21	112	112
O=C(O)Cn1ccc2cc(S(=O)(=O)N3CCCCCC3)ccc21	103	109
CCC(=O)N1N=C(c2ccc(OC)cc2)CC1c1cn(-c2ccccc2)nc1-c1cccs1 (stereo unspecified)	103	101
COc1cccc(CNS(=O)(=O)c2ccc3c(c2)CCN3C(=O)C2CCC2)c1	106	109
CCc1ccccc1Nc1nn2c(=O)c3ccc(C(=O)Nc4ccc(OC)cc4)cc3nc2s1	106	115
COc1cccc(OC(=O)CSc2nnc(-c3ccccc3OC)o2)c1	98	102
COc1cccc(CNC(=O)c2cc3cc(C)ccc3n2C)c1	113	109
CC(C)c1ccc(NC(=O)Cn2c3ncccc3c(=O)n2-c2ccccc2)cc1	33*	49*
Cc1ccccc1Nc1c(-c2ccc(N3CCOCC3)cc2)nc2ccc(Br)cn12	104	104
CCc1nn(CC(=O)NCc2cccc(OC)c2)c(=O)c2cc3cc(F)ccc3n12	106	112
CCn1c(CNC(=O)c2ccc(OC)cc2)nnc1SCC(=O)Nc1ccccc1	102	101
COc1cccc(-n2cc(C(=O)Nc3ccccc3C(N)=O)c3ccccc3c2=O)c1	108	111
Cc1cc(N2CCN(C)CC2)nc2ccc(NC(=O)Nc3cccc(Cl)c3)cc12	99	111
Cc1ccc(C)c(Cn2c(=O)cc(C(F)(F)F)c3c(C)nn(C)c32)c1	102	106
CCOC(=O)c1c(C)[nH]c(C)c1S(=O)(=O)NCC(=O)NCc1ccc(C)cc1	111	112
COc1cccc(/C=C/c2nc(C#N)c(NCCc3ccccc3)o2)c1	108	110

Next structures
SMILES	Polio RdRp inh	Polio RdRp inh intensity
Cc1sc(NC(=O)COc2ccc(C(C)(C)C)cc2)c(C(=O)OC(C)C)c1C	104	107
CC(=O)N1CCOc2cc(S(=O)(=O)NCc3ccc(C)cc3)c(Cl)cc21	104	108
O=C(CCCN1C(=O)c2cccnc2Oc2ccc(Cl)cc21)NCc1ccccc1F	106	104
CCCCNc1nc2c(c(=O)n(Cc3ccc(Cl)cc3)c(=O)n2C)n1C	114	110
COCCCNC(=O)CSc1nc(-c2cccc(F)c2)[nH]c1-c1ccccc1	106	105
COc1ccc(OC)c2sc(N3CCN(C(=O)c4ccc5c(c4)CCCC5)CC3)nc12	106	107
COc1ccc(-c2cc(C)no2)cc1S(=O)(=O)NCc1cccs1	115	118
C=CCc1ccc(OCc2ccc(C(=O)Nc3ccc(NC(C)=O)cc3)o2)c(OC)c1	106	105
COc1cccc(CNS(=O)(=O)c2ccc(-c3cc(C(F)(F)F)on3)s2)c1	111	109
COc1ccc(S(=O)(=O)NCC(c2ccc(N(C)C)cc2)N2CCCC2)cc1 (stereo unspecified)	105	111
O=C(CCC1N=C2c3ccccc3N=C(SCc3ccc(F)cc3)N2C1=O)NCc1cccs1 (stereo unspecified)	112	98
COc1cc(NC(=O)CCc2c(C)nn(-c3ccc(N4CCCCC4)nn3)c2C)cc(OC)c1OC	104	101
CCN(CC)C(=O)C1CCN(S(=O)(=O)c2ccc3c(c2)CCCN3C(C)=O)CC1	109	96
Cn1c(=O)cc(SCC(=O)N2CCN(c3ccccc3F)CC2)c2cc(Cl)ccc21	110	110
CCC(=O)Nc1ccc(C)cc1-c1nc2ccccc2n(C(C)C(=O)Nc2ccccc2CC)c1=O (stereo unspecified)	109	96
Cc1ccc(CN2C(=O)c3ccccc3CC2(C)C(=O)NC2CCCCC2)cc1 (stereo unspecified)	107	109
Cc1ccc(-c2nc3cc(C(C)C)ccc3o2)cc1NC(=O)c1cc([N+](=O)[O-])ccc1N1CCOCC1	104	106
CCOCCCNC(=O)CN1C(=O)COc2ccc(S(=O)(=O)N3CCOCC3)cc21	103	104
CCc1ccccc1NC(=O)CSc1nc(-c2ccccc2OC)nc2c1Cc1c(CO)cnc(C)c1O2	107	110
Cc1ccc2c(c1)cc(C(=O)NCc1ccc(F)cc1)n2C	111	112
COc1ccc(CNC(=O)c2cnn(-c3ccc(F)cc3)c2-n2cccc2)cc1	108	95
CCOC(=O)c1c(C)[nH]c(CCC(=O)Nc2c(C)cccc2CC)c1C	107	110
CCN(C(=O)CSc1nc2ccccc2n1CC(=O)Nc1cccc(C#N)c1)c1ccccc1	103	101
COc1ccc(NC(=O)Cc2csc(COc3cccc(C)c3)n2)cc1OC	106	113
COC(=O)c1ccc(Nc2ncnc3c2cnn3C)cc1	101	105

New compounds follow.
SMILES	Polio RdRp inh	Polio RdRp inh intensity
CN1CCc2c(sc(NC(=O)CSc3ccc(F)cc3)c2-c2nc3ccccc3s2)C1	116	145
CCOC(=O)Cn1c(=O)oc2cc(S(=O)(=O)N3CCN(c4cccc(Cl)c4)CC3)ccc21	104	105
Cc1ccc(-c2nnn3c2nc(NCCc2ccccc2)c2ccccc23)cc1	106	110
O=S(=O)(Nc1ccc(Br)cc1)c1ccc2nc(-c3ccccc3)[nH]c2c1	113	115
COc1ccc(-c2cc(C(F)(F)F)nc(SCCC(=O)Nc3ccccc3F)n2)cc1	105	113
O=C(NC1(C(F)(F)F)N=C(c2ccccc2)N(C2CCCCC2)C1=O)c1ccccc1F (stereo unspecified)	103	102
COc1ccc(N2CCN(C(=O)CS(=O)(=O)c3cccc4nsnc34)CC2)cc1	107	100
Cc1nc2sccn2c(=O)c1S(=O)(=O)Nc1ccc(N2CCN(S(C)(=O)=O)CC2)cc1	103	109
CCOc1ccc(-n2c(SCC(=O)NC3CCCCC3)nc3c([nH]c4ccccc43)c2=O)cc1	109	115
COc1ccc(C(=O)Nc2cc3cc(Cl)ccc3oc2=O)cc1OC	104	107
CC(=O)c1ccc(NC(=O)CSc2nnc3ccc(-c4ccc(Cl)cc4)nn23)cc1	113	109
CCOC(=O)c1c(C)sc(-c2c(-c3ccc4c(c3)OCCO4)[nH]c3c2c(=O)n(C)c(=O)n3C)c1O	154	155
COc1ccc(NC(=O)c2cc(C3CC3)nc3c2c(C)nn3-c2ccc(C)cc2)cc1OC	109	99
COc1cc(OC)c(NC(=O)N2CCc3cc(S(=O)(=O)N4CCC(C)CC4)ccc32)cc1Cl	107	110
O=C(O)CCn1c(=O)c2cccn2c2cccnc21	108	111
COc1ccc(CNC(=O)Cc2c(C(=O)O)c(C)cn2C)cc1	110	111
Fc1ccc(C(Nc2ccc(Cl)c(C(F)(F)F)c2)c2nnc(-c3ccccc3)o2)cc1 (stereo unspecified)	102	110
COCCn1c(SCC(=O)c2c[nH]c3ccccc23)nc2cc(C(=O)NCC(C)C)ccc2c1=O	106	121
Cc1ccc(CNC(=O)CN(c2cc(C)cc(C)c2)S(=O)(=O)c2c(C)[nH]c(=O)[nH]c2=O)cc1	105	109
Cc1ccc(S(=O)(=O)CC(=O)Nc2sc3c(c2C(N)=O)CCCC3)cc1	110	110
COc1ccc(-n2c(SCC(=O)N3CCCc4ccccc43)nc3c([nH]c4ccccc43)c2=O)cc1	109	116
Cc1ccc(C(=O)Nc2ccc3oc(-c4cccnc4)nc3c2)c(Cl)c1	101	105
Cn1nc(-c2ccccc2)c(-c2ccccc2)c(C(=O)Nc2ccccc2C(N)=O)c1=O	108	95
CC(C)N1CCc2nc(SCC(=O)Nc3cccc(F)c3)[nH]c(=O)c2C1	107	106
CCc1cccc(NC(=O)CCN2C(=O)c3ccccc3Sc3ncccc32)c1	102	107

Continued:
SMILES	Polio RdRp inh	Polio RdRp inh intensity
COc1ccc(NC(=O)CC2C(=O)N(c3ccc(F)cc3)C(=O)N2Cc2ccco2)cc1 (stereo unspecified)	101	100
CC1CCN(S(=O)(=O)c2ccc(C(=O)Nc3nc4ccc(F)cc4s3)cc2)CC1	112	117
COc1ccc(CCNC(=O)c2ccc3c(c2)ncn3-c2ccc(C)cc2C)cc1OC	110	103
CCOc1ccc2c(c1)c(=O)c(C(=O)c1ccc(CC)cc1)cn2CC(=O)Nc1ccccc1C	110	108
CCOc1ccccc1N(CC)C(=O)Cn1ncc2c1-c1ccccc1OC2	106	109
CCC(C)NC(=O)CCc1c(C)nc2nc(-c3cc(OC)cc(OC)c3)nn2c1C (stereo unspecified)	102	107
CCc1cccc(NC(=O)Cn2c(=O)n(Cc3ccccc3)c(=O)c3c2c2cc(OC)ccc2n3C)c1	105	104
CCOC(=O)c1c(C)[nH]c(C)c1S(=O)(=O)N1CCCC(C(=O)N2CCN(c3ccccc3)CC2)C1 (stereo unspecified)	101	100
COc1ccc(C(=O)NCC(c2cccnc2)N2CCc3ccccc3C2)cc1 (stereo unspecified)	108	113
CCn1ccc2cc(S(=O)(=O)N3CCC(C(=O)NCc4ccc(OC)cc4)CC3)ccc21	102	107
COc1ccc(Cn2cc(C(=O)c3ccc(F)cc3)c(=O)c3cc4c(cc32)OCCO4)cc1	105	104
COc1cc(NC(=O)c2cc3c(=O)n(Cc4ccco4)ccc3nc2C)cc(OC)c1OC	110	113
Cc1cccc(Nc2nnc(-c3ccc(C)c(S(=O)(=O)N4CCN(C)CC4)c3)c3ccccc23)c1	105	107
O=C(COc1ccccc1)Nc1cccc(-c2cn3cccnc3n2)c1	106	112
COc1ccccc1N1CCN(C(=O)CSc2nc3ccccc3nc2Cc2ccc(C)cc2)CC1	104	107
O=C(CSc1nccn1Cc1ccc(Cl)cc1)NCc1ccccc1	108	100
CCOc1cccc(CNC(=O)c2ccc(N3CCCC3)c(NC(=O)NCc3ccccc3)c2)c1	106	113
O=C(Cn1nc(C(F)(F)F)c2c1CCCC2)Nc1ccc(Br)cc1	107	111
COc1cccc(N2CCN(C(=O)CCn3nc(C)c(S(=O)(=O)N4CCCC4)c3C)CC2)c1	107	106
COc1cc(NC(=O)C(Cc2ccccc2)NS(=O)(=O)c2cccs2)cc(OC)c1 (stereo unspecified)	99	98
COc1ccc(OCC(=O)Nc2ccc(-c3nc4cc(C)c(C)cc4o3)cc2)cc1	103	108
COc1ccc(NC(=O)CSc2nc(-c3ccccc3)nc3c2Cc2c(CO)cnc(C)c2O3)cc1Cl	110	110
O=C(CSc1nc2c([nH]c3ccccc32)c(=O)n1-c1ccc(Cl)cc1)N1CCOCC1	110	101
CC(Oc1ccccc1)C(=O)Nc1ccc(OCc2cc(=O)n3ccsc3n2)cc1 (stereo unspecified)	110	114
CCN(CC)S(=O)(=O)c1cc(-c2ccc(=O)n(C(C)C(=O)Nc3cccc(C#N)c3)n2)ccc1C (stereo unspecified)	109	111

Continued.
SMILES	Polio RdRp inh	Polio RdRp inh intensity
O=C(CSc1cn(CC(=O)N2CCCC2)c2ccccc12)Nc1ccccc1C(F)(F)F	110	114
COc1cccc(Cn2c(CNC(=O)Cc3cccc(C)c3)nc3cccnc32)c1	103	106
COc1ccc(NC(=O)C(C(C)C)N2Cc3ccccc3C2=O)cc1 (stereo unspecified)	100	94
COc1cc(C2c3c(oc4ccccc4c3=O)C(=O)N2Cc2ccccc2Cl)ccc1O (stereo unspecified)	106	109
CCCCN(CCCC)S(=O)(=O)c1ccc2oc(C(=O)NCc3ccccc3)c(C)c2c1	111	103
COc1cccc(N2CCN(C(=O)C3CCN(S(=O)(=O)c4ccc5c(c4)oc(=O)n5C)CC3)CC2)c1	111	110
Cc1ccc(Cn2cc(C(=O)c3ccc(C)cc3)c(=O)c3ccc(C)nc32)cc1	111	119
Cc1oc(-c2cccc(Cl)c2)nc1CSCC(=O)O	106	103
CC(C)(C)C(=O)OCc1cc(=O)n2nc(C3CC3)sc2n1	103	102
O=C(CCC(=O)N1Cc2ccccc2Oc2ncccc21)NCc1ccccc1Cl	99	105
COc1ccc(-n2nc(C)c3c(C(F)(F)F)cc(-c4cccnc4)nc32)cc1	112	117
